CapD inh: inhibitors of Bacillus anthracis CapD enzyme; z-score (concentration not given with the values); 0.23% of 140,000 active; purified CapD enzyme, fluorescence intensity read-out; hits give low values; some hits fall short of the stated cut;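 active = z-score under -4 in either of two replicates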;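 also: stock transfer was 100 nL into about 40 µL; score is relative to mean and spread of the plate; one replicate is shown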
AID504770: growth inhibitors of E. coli YBA685 in a screen for V. cholerae RctB (chromosome II replication) inhibitors | E. coli YBA685 rctB-dependent plasmid, OD600 growth, 3 h; hits give low values | z-score (concentration not given with the values) | 0.27% of 130,000 active;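 active = z-score under -2 on both plates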;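 also: wells of about 30 µL received 100 nL stock; score is relative to mean and SD of the test wells; the first replicate is given; strong numbers were not always called active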
An asterisk follows results filed as active; / = no result given; & = joins results of further samples. These rows are one share of the data; count on the stated rates, not on these rows.

SMILES | CapD inh | AID504770
O=C(/C=C/c1cn(-c2ccccc2)nc1-c1cccs1)NCc1ccccc1 | 8.5 | 0.45
CC1(C)CC(=O)C2=C(C1)N(c1ccccc1)C(N)=C(C#N)C2c1cc(Br)cs1 (configuration not stated) | 8 | /
O=C(O)CCC1=NNC(=O)CC1 | / | -0.45
O=C(Nc1ccc(Cl)cc1)c1cc2ncc(Br)cn2n1 | -0.3 | -0.1
CC(=O)N1CCc2nc3ncccc3cc2C1 | -0.085 | /
CC(C)OC(=O)C1=C(N)OC2=C(C(=O)CCC2)C1c1ccc(Cl)cc1 (configuration not stated) | -0.58 | /
CCCCNC(=O)CN1CCN(Cc2cccc(OCC)c2OC)CC1 | / | 0.35
N#CC1=C(N)Oc2c(c(=O)oc3ccccc23)C1c1cc([N+](=O)[O-])ccc1Cl (configuration not stated) | -0.21 | /
CCn1ccc(=O)[nH]c1=O | / | -0.4
O=C(Cn1cc(C(F)(F)F)ccc1=O)NCC1COc2ccccc2O1 (configuration not stated) | / | -0.15
CC(C)Sc1nnc2c3ccccc3n(CCc3ccccc3)c2n1 | -0.21 | /
NC(=S)N1CCOCC1 | / | 0.2
c1ccc(CNc2cc(-c3ccccc3)nc3nncn23)cc1 | 12 | 0.7
CCc1ccc2oc(-c3ccc(NC(=O)c4cccc5ccccc45)cc3)nc2c1 | 14 | /
CC(C)NC(=O)c1cnn(C)c1-n1cccc1 | 0.79 | -0.25
C=CCNc1ncnc2c1c(-c1ccccc1)cn2-c1ccc(Br)cc1 | 0.17 | /
O=C(CS(=O)(=O)c1cn(Cc2ccccc2Cl)c2ccccc12)N1CCCCC1 | 0.045 | 0.65
N#Cc1c(C(F)(F)F)cc(-c2cccs2)nc1SCC(=O)Nc1ccccn1 | 106 | /
COc1cc(-c2nnc(COC(=O)C(O)(c3ccccc3)c3ccccc3)o2)cc(OC)c1OC | / | 0.45
O=C(Cn1nc(-c2ccc(Cl)cc2)ccc1=O)NCc1ccco1 | -0.24 | -0.15
O=C(Cn1nnc2ccccc21)Nc1ccccc1Cl | -0.39 | 0.35
CCOc1cc(/C=C2/SC(=Nc3ccccc3)NC2=O)cc(Br)c1O | 0.24 | /
CC1=NCCc2c1[nH]c1cc(O)ccc21 | 0.005&-0.22 | 0.2
O=C(NC(=O)C1CCCCC1)Nc1ccc(Cl)cc1 | / | 1.8
COC(=O)c1cc(=O)n2c(n1)sc1cc(C)c(C)cc12 | -0.48 | /
Cc1cc(Cl)ccc1OC(C)C(=O)N1CCN(c2ccccc2F)CC1 (configuration not stated) | 0.55 | -0.95
N#CC1=C(n2ncnc2-c2ccc3c(c2)OCO3)SC2CCCCCC12 (configuration not stated) | / | 0.3
COc1ccc(C(=O)NCCS(=O)(=O)N2CCc3ccccc3C2)cc1OC | / | -0.15
COc1ccc(-n2nnnc2-c2ccc3ccccc3n2)cc1 | -0.09 | -0.65
Cc1ccc(N2C(=O)c3ccccc3C2C(=O)c2ccc(O)cc2O)cc1 (configuration not stated) | / | 0.75

Looked up by compound from the list above:
SMILES | CapD inh | AID504770
COc1ccc(C(=O)NCCS(=O)(=O)N2CCc3ccccc3C2)cc1OC | / | -0.15
O=C(Cn1nnc2ccccc21)Nc1ccccc1Cl | -0.39 | 0.35
Cc1cc(Cl)ccc1OC(C)C(=O)N1CCN(c2ccccc2F)CC1 (configuration not stated) | 0.55 | -0.95

Carrying on.
SMILES | CapD inh | AID504770
CC(=O)Nc1cc(C(=O)NCCN(C)Cc2ccccc2)ccc1Sc1ccc(F)cc1 | 0.26 | -0.5
CCOC(=O)NN=C1CC(C)(C)NC(C)(C)C1 | 0.17 | -0.6
O=C(Nc1ccc([N+](=O)[O-])cc1)Oc1cccnc1I | -0.46 | /
Cc1ccc(OCCNC(=O)c2sc(C)nc2C)cc1 | 0.035 | -0.7
CCOC(=O)c1nc(-c2ccccc2)oc1C(F)(F)F | -0.11 | /
COc1ccccc1NC(=O)N1CCCSc2ccccc21 | / | -0.5
Cc1ccc(CN2C(=O)C(O)(c3c(C)[nH]c4ccccc34)c3cc(Br)ccc32)cc1 (configuration not stated) | -0.34 | -0.6
O=C(O)C1CCC(CNS(=O)(=O)c2ccc(Br)cc2)CC1 (configuration not stated) | -0.24 | -0.3
OC(CN(C1CCCCC1)C1CCCCC1)Cn1c2ccc(Cl)cc2c2cc(Cl)ccc21 (configuration not stated) | -0.085 | /
c1cnc2nc(CN3CCCC3)cn2c1 | / | -2.4
COS(=O)(=O)c1ccc2c(c1C)OC(C)(C)CC2=O | 27 | /
O=C(/C=N/O)Nc1cccnc1 | / | 2.5
O=C(Cn1c(=O)oc2ccccc21)Nc1ccc2nc3n(c(=O)c2c1)CCCCC3 | 0.32 | -0.65
Cc1ccc(CNC(=O)c2cc(=O)[nH]c3ccc(Br)cc23)cc1 | -1.2 | 0
O=C(NNC(=O)c1sccc1NC(=O)c1ccccc1Cl)c1ccc(-n2nc(-c3ccccc3)cc2-c2ccccc2)cc1 | 0.39 | /
N#Cc1cc(-c2cccc(C(F)(F)F)c2)cn(Cc2ccc(F)cc2)c1=O | 71 | /
CCN(CC)c1nc(=O)n(-c2nc(-c3ccccc3)oc2-c2ccccc2)cc1Cl | -0.16 | /
C(=NCc1cccs1)c1cccs1 | -0.64 | /
O=C(O)/C=C/C(=O)N1CCN(c2cc(C(F)(F)F)ccn2)CC1 | 74 | -1.4
COc1ccc(C2C(C(=O)N3CCC4(CC3)OCCO4)c3ccccc3C(=O)N2C)cc1 (configuration not stated) | -0.95 | 0.05
CC1(C)CN=C(Nc2ccc(C(F)(F)F)cc2)S1 | -0.44 | 0.15
CC(C)NC(=O)CN1CCN(c2ccc(F)cc2)CC1 | / | -0.45
CCC(Sc1nc(Nc2ccc(F)cc2)c2ccccc2n1)C(=O)Nc1ccc2c(c1)OCO2 (configuration not stated) | 0.61 | 1.4
CCOC(=O)C1=C(C)NC2=C(C(=O)C(C(=O)OCC)C(c3ccc(OC)cc3)C2)C1c1cc(OC)c(OC)c(OC)c1 (configuration not stated) | 4.7 | /
Fc1ccccc1-c1nc(-c2ccc3sc4ccccc4c3c2)c(-c2ccccc2)[nH]1 | 26 | /
Cc1cc(Br)ccc1N1C(=O)/C(=C/c2ccc(-c3cc(Cl)ccc3Cl)o2)C=C1c1ccccc1 | -0.55 | /
Cc1cc(C(=O)Sc2ccccc2)nn1C(C)(C)C | -0.09 | -0.85
c1nc(N2CCN(Cc3ccc4c(c3)OCO4)CC2)c2ccsc2n1 | / | 0.1
Cc1c(C(=O)N2CCN(Cc3ccccc3)CC2)sc2ncnc(N3CCOCC3)c12 | 0.18 | /
CC(NC(=O)CN1CCN(Cc2ccc(Cl)cc2)C1=O)c1ccc2c(c1)OCCO2 (configuration not stated) | 0.39 | -0.65
O=C(Oc1c(CN2CCOCC2)cc(Cl)c2cccnc12)c1ccc(Cl)cc1 | -0.66 | -0.75
COC(=O)c1sccc1NNC(=O)/C(C)=C/C(=O)O | -0.49 | -1.1
CCN1CCN(C(=O)C2CCN(C(=O)c3cc4sccc4n3Cc3ccc(F)cc3)CC2)CC1 | -0.095 | 1.2
CCOC(=O)c1c(C)nsc1NC(=O)Oc1ccccc1 | -0.69 | 2.4
CCCC(C(=O)NC1CCCC1)N(C(=O)Cn1nnc(-c2ccc(C)o2)n1)C1CCCC1 (configuration not stated) | / | 0.2
C#CCn1c(C2CC(=O)N(c3cccc(C(F)(F)F)c3)C2)nc2ccccc21 (configuration not stated) | / | -1.6
Cc1nc2ccncc2cc1C(=O)Nc1ccccc1 | -0.12 | /
COCON1C(=O)CN(C(=O)OC)C1c1ccccc1 (configuration not stated) | 5.8 | /
COc1cccc(NC2CC(=O)N(c3c(C)cccc3C)C2=O)c1 (configuration not stated) | / | -0.4
O=C1N(CN2CCN(CCO)CC2)c2ccccc2C12OCCO2 | -0.04 | /
Cn1ccnc1SCC(=O)NC1Cc2ccccc2C1 | -0.21 | -1.2
Cc1csc(N(C(=O)CCc2nc3ccccc3o2)c2ccccc2)n1 | / | -0.6
COc1ccc(C2N(c3ccccc3)CCN2c2ccccc2)cc1Br | 0.4 | /
O=C(NCCCN1CCCC1)c1cccc(N2CCCC2=O)c1 | 0.19 | 1.9
CCCC1c2ccsc2CCN1C(=S)Nc1ccc(Cl)cc1Cl (configuration not stated) | 0.17 | 1.9
Cc1ccccc1C1N2CC3(C(C)C)CN1CC(C(C)C)(C2)C3=O (configuration not stated) | -0.49 | /
C=C(C)c1cccc(C(C)(C)NC(=O)NC23CC4CC(CC(C4)C2)C3)c1 | 0.14 | -0.1
CN(CC(=O)Nc1ccccc1N1CCOCC1)Cc1ccc(Cl)cc1 | / | -0.5
Cc1cc(C)n2nc(SCCC(=O)NCc3c(F)cc(F)cc3F)nc2n1 | 0.46 | -0.25
CNc1ccc2nnc(CCNC(=O)c3ccccc3)n2n1 | -0.01 | -0.3
Other compounds follow.
SMILES | CapD inh | AID504770
COc1ccc(N2CCN(C(=O)OCCN3CCN(Cc4ccc(N(C)C)c5ccccc45)CC3)CC2C)cc1 (configuration not stated) | 74 | /
O=C(CSCC(=O)c1ccc(-c2ccccc2)cc1)Nc1ccc2ccccc2c1 | -0.4 | 1.1
Cn1c(/N=C(\N)c2ccccc2)nc2ccccc21 | -3.5 | -0.35
CC(=O)Nc1nnc(SCc2cc(=O)n3ccsc3n2)s1 | 0.67 | -0.25
CC(=O)OC1CCNC2CCCCC21 (configuration not stated) | -0.81 | -1
N#CCCn1cc(C(=O)Oc2ccccc2)c(-c2cccc(Br)c2)n1 | -0.27 | 1.4
COc1cccc2cc(C(=O)NCCN(C)C)c(=O)oc12 | -0.24 | 0.3
O=C(OCCc1ccccc1F)N1CCC2(CC1)OCCCO2 | -0.89 | /
Cc1ccc(NC(=O)Cn2c(SCc3cccc(C(F)(F)F)c3)nc3cccnc32)cc1C | 58 | 1.3
CSc1nc2ccc(NC(=O)c3ccc(S(=O)(=O)N4CCc5ccccc54)cc3)cc2s1 | -0.31 | /

Rewritten with each value named: two of the compounds above
> COc1cccc2cc(C(=O)NCCN(C)C)c(=O)oc12
- CapD inh: -0.24
- AID504770: 0.3

> O=C(OCCc1ccccc1F)N1CCC2(CC1)OCCCO2
- CapD inh: -0.89
- AID504770: /

More records follow.
SMILES | CapD inh | AID504770
O=C(NC1CC1)C1CSC(c2cccnc2)=N1 (configuration not stated) | / | 0.35
CC1CC(C)CN(C(=O)C2=COCCO2)C1 (configuration not stated) | / | -0.7
O=C(C1CCC(=O)N1C1CCCC1)N1CCC2(CC1)OCCO2 (configuration not stated) | -0.81 | -0.8
COc1ccc(S(=O)(=O)Oc2ccc(/C=N/NC(=O)C3(C(=O)N/N=C/c4ccc(OS(=O)(=O)c5ccc(OC)cc5)cc4)CCC3)cc2)cc1 | -0.16 | /
COc1ccc(S(=O)(=O)Nc2ccccc2Oc2ccc(Cl)cc2Cl)cc1OC | -0.53 | /
Clc1cccc(-n2c(SCC3CC3)nnc2C2CC2)c1 | -0.17 | 1.9
COc1ccc(-c2ccnc(SCc3cccc([N+](=O)[O-])c3)n2)cc1 | -0.2 | /
CN=C1S/C(=C\c2cn(CC(=O)O)c3ccccc23)C(=O)N1C | 0.71 | -0.1
COc1ccc(/C=C2\C(=O)N(c3ccc(Cl)c(C(=O)O)c3)N=C2C)cc1Br | 0.17 | /
Cc1ccc2c(c1)-c1c(cnn1CC(=O)N1CCc3ccccc31)CO2 | -0.04 | 0.55
CSc1cc(C(C)(C)C)nn1S(=O)(=O)c1ccc(Cl)cc1 | 0.045 | 0
COc1ccc(C(=O)CC(=O)c2ccccc2O)cc1 | / | -2.4
Cc1cc(OCC(=O)NC2CCCCCC2)no1 | / | 0.1
CCNc1nc(NC(C)C)nc(OCCNS(=O)(=O)c2ccc(C)cc2)n1 | -0.7 | /
O=C(NC1CCCCC1)c1cc(-c2ccc(Cl)cc2)n[nH]1 | -0.17 | -0.05
Cc1[nH]c(=O)[nH]c(=O)c1/C=N\NC(=O)c1cc2ccccc2o1 | / | -0.4
C=CCn1c(Cc2ccc(OC)c(Cl)c2)n[nH]c1=S | -0.66 | 1.8
C#CCN1C(=O)C(O)(CC(=O)c2ccc3c4c(cccc24)CC3)c2ccccc21 (configuration not stated) | 0.48 | /
Cc1oc2c(F)c(F)c(F)c(F)c2c1C(=O)NC1CCCCCC1 | / | 0
O=S(=O)(NCCc1ccc(OCc2ccccc2)c(OCc2ccccc2)c1)c1cc(C(F)(F)F)cc(C(F)(F)F)c1 | -0.21 | /

Overlap with the part before: 5 entries; new compounds follow.
SMILES | CapD inh | AID504770
Cc1[nH]c(=O)[nH]c(=O)c1/C=N\NC(=O)c1cc2ccccc2o1 | / | -0.4
C=CCn1c(Cc2ccc(OC)c(Cl)c2)n[nH]c1=S | -0.66 | 1.8
C#CCN1C(=O)C(O)(CC(=O)c2ccc3c4c(cccc24)CC3)c2ccccc21 (configuration not stated) | 0.48 | /
Cc1oc2c(F)c(F)c(F)c(F)c2c1C(=O)NC1CCCCCC1 | / | 0
O=S(=O)(NCCc1ccc(OCc2ccccc2)c(OCc2ccccc2)c1)c1cc(C(F)(F)F)cc(C(F)(F)F)c1 | -0.21 | /
CCC1CCCCN1C(=O)Cn1c(=O)n(-c2cc(F)ccc2F)c(=O)c2sccc21 (configuration not stated) | 0.045 | 0.5
Cc1cc(-c2noc(COc3c(F)c(F)cc(F)c3F)n2)c2ccccc2n1 | -0.47 | 1.9
CCN1C(=O)S/C(=C\C(=O)O)C1=O | / | -0.6
C/C(=N\NC1=NCCCN1)c1ccccc1 | -0.34 | -0.5
CCCn1c(=O)c2ccccc2n2c(=S)[nH]nc12 | / | 2.5
O=C1c2ccccc2C(=O)N1CCCN1CCN(c2nccc(C(F)(F)F)n2)CC1 | -0.4 | -0.5
COc1ccc(Cl)cc1NC(=O)C(C)Oc1ccc(NC(=O)c2ccco2)cc1 (configuration not stated) | / | -0.35

Of the compounds above, these contain a nitro group on carbon.
SMILES | CapD inh | AID504770
N#CC1=C(N)Oc2c(c(=O)oc3ccccc23)C1c1cc([N+](=O)[O-])ccc1Cl (configuration not stated) | -0.21 | /
O=C(Nc1ccc([N+](=O)[O-])cc1)Oc1cccnc1I | -0.46 | /
COc1ccc(-c2ccnc(SCc3cccc([N+](=O)[O-])c3)n2)cc1 | -0.2 | /
